MT1-MMP act inh: inhibitors of human MT1-MMP activation; P50281; HT1080 RFP-PRO-GFP cells, GFP/RFP ratio fluorescence, overnight; percent of plate control window, DMSO zero; GFP/RFP ratio change, % at 20 µM; 360,000 tested, 0.061% active;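 active = GFP/RFP ratio change of at least 30% with cell ATP level not reduced by more than half and red fluorescence within 50% of control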; note: strong numbers were not always called active
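Material – HT1080 RFP-PRO-GFP cells · Control set – DMSO wells and RFP-L50D-GFP cells · Incubation – overnight cell settling, then overnight compound exposure, 37 °C, 5% CO2 · Compound dosing – single-point 20 µM compound, 1% DMSO · Read-out – GFP/RFP fluorescence ratio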
CSC inhib: cancer stem cell inhibition; cancer stem cell-like cells viability, luminescence; inhibition, % at 7.5 µM; 300,000 tested, 1.1% active; AID 2717;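 active = mean at 75% or more and at least half the replicates too; tested in HMLE shEcad cells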;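 note: 0% = median of negative and 100% = median of positive control wells; the first replicate is given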
PABP polyA inh: blocks human PABP binding to poly(A) RNA. P11940. AID 2014. fluorescence polarization. 290,000 tested, 1% active. inhibition, % at 35 µM;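 active = 50% or more with normal probe brightness, or confirmed in later tests; about a fifth of its hits are not listed in these tables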;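 note: calls also rest on retests at 20 µM and on dose response follow-up; controls were probe without protein and protein plus probe with vehicle; some compounds called inactive have numbers as strong as hits; many hits fall short of the cut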
Target sequence (P11940 whole entry, looked up): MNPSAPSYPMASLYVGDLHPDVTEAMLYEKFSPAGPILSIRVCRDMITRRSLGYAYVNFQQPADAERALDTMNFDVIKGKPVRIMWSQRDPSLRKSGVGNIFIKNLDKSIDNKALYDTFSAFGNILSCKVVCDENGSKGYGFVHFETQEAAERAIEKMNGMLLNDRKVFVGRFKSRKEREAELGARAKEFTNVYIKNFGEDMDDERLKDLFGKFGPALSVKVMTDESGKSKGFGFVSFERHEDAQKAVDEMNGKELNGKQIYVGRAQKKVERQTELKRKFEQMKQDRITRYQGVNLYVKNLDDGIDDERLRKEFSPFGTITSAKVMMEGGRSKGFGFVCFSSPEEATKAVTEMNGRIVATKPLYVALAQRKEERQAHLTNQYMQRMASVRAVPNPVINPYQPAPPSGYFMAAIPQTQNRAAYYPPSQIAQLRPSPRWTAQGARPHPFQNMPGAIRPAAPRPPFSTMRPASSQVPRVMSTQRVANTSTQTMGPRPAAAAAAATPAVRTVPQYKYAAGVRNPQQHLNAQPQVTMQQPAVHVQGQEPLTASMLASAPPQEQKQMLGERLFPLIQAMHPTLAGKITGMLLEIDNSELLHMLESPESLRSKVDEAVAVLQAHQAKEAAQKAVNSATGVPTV
Rce1 inhib: inhibitors of yeast Ras-converting enzyme. yeast membranes, quenched prenylated peptide cleavage fluorescence. calls only. 290,000 tested, 0.27% active. AID 2563;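 active = fall in fluorescence gain of 50% or more versus controls, with final raw signal at or below 3038400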;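 note: plate controls were neutral control wells for no effect and wells lacking membranes for full effect; tested at 10 µM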
eIF4H FP inh: inhibitors of RNA binding by human eIF4H. eIF4H fluorescence polarization binding assay. AID 2012. inhibition, % at 35 µM. 290,000 tested, 0.94% active. Q15056;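 active = 50% or more with normal probe brightness, or confirmed in later tests; about a fifth of its hits are not listed in these tables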;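 note: calls also rest on retests at 20 µM and on dose response follow-up; 0% = protein and probe with vehicle and 100% = probe without protein; strong numbers were not always called active; many hits fall short of the cut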
UUG fidelity: alters start codon recognition fidelity in yeast | S. cerevisiae UUG-firefly luciferase reporter, luminescence/redox ratio | activity score, % at 18.7 µM | AID 602363 | 350,000 tested, 0.13% active;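 active = replicate mean at a twofold rise or more, about +100% in these data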;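 note: firefly luciferase made from a UUG start codon reports start codon fidelity; reporter light over untreated wells divided by growth signal over untreated wells; some hits fall short of that in this replicate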
Env fusion inh: inhibitors of HIV Env-mediated cell fusion; inhibition, % at 12.3 µM; 360,000 tested, 1.1% active; HeLa-JRFL Env/CEM21 cell fusion, luciferase;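 active = mean replicate inhibition score of at least 50 and every replicate individually at or above 50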;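 note: 0% = plate neutral controls and 100% = maraviroc near 300 nM; one replicate is shown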
eIF4H FP inh retest: also measured in eIF4H FP inh; calls as there; inhibition, %; compound at 20 µM; confirmation average;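 mean of two retest wells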
PABP polyA inh retest: further read-out of PABP polyA inh, marked with its call; inhibition, %; compound at 20 µM; confirmation repeats;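 mean of two retest wells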
MT1-MMP act inh RFP: further read-out of MT1-MMP act inh, marked with its call; RFP signal change, %; measured here: RFP expression control read;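 0 = vehicle wells; hits needed this value within 50% of zero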
Starred values were filed as active, the others as inactive; i = inactive; x = not tested or not shown; & = joins results of further samples. A portion of the library; count on the stated rates, not on these rows.

SMILES	MT1-MMP act inh	MT1-MMP act inh RFP	CSC inhib	PABP polyA inh	Rce1 inhib	eIF4H FP inh	UUG fidelity	Env fusion inh	others
CC1(C)CC(=O)C=C(NCCc2c[nH]c3ccccc23)C1	0	-1	-5	1	i	1	1	21
Cc1nc2nc(C)c(CCC(=O)O)c(C)n2n1	-6	8	-3	0	i	-5	x	7
O=C(NC(=S)NNC(=O)c1ccccc1O)c1ccc([N+](=O)[O-])cc1	5	-15	17	-12	i	3	-20	27
O=C(CSc1cn[nH]n1)Nc1ccccc1F	0	5	-8	x	i	x	7	x
O=C(CCC1CCCN(Cc2ccc(O)c(Cl)c2)C1)NCc1ccccc1F (stereo not drawn)	1	6	-2	-3	i	-4	x	-6
COc1ccc(C(=O)Nc2ccc(N3CCOCC3)cc2)cc1OC	1	-4	4	-8	i	-7	-13	x
CC1Sc2ccc(C(=O)N(CCc3ccccc3)Cc3ccccc3)cc2NC1=O (stereo not drawn)	-5	-9	x	x	x	x	103*	-59
COC(=O)C1=CN(CCCN2CCCC2=O)C=C(C(=O)OC)C1c1ccccc1C(F)(F)F	3	0	-6	-8	i	-18	-5	x
O=C(NC(Cc1ccc2c(c1)OCO2)C(=O)N1CCCC1C(=O)O)c1ccccc1 (stereo not drawn)	-2	4	6	-8	i	-6	-10	x
Cc1ccc2c(CNCc3ccccc3)cc(=O)oc2c1	-1	-8	60	-1	i	-5	-18	-39
CCOC(=O)CNC(=O)Cn1cnc2sc(C)c(S(=O)(=O)N3CCOCC3)c2c1=O	1	2	-10	-6	x	15	-9	0
Cc1c(Cc2ccccc2)c(=O)oc2c(C)c(OCC(=O)N[C@@H](Cc3ccccc3)C(=O)O)ccc12	3	4	-15	35	i	77	-10	x	eIF4H FP inh retest=47;PABP polyA inh retest=28
Cc1csc(NC(=O)c2ccc(=O)[nH]c2)n1	0	3	0	2	i	-4	-18	7
O=C(Nc1cc(Cl)ccc1Oc1ccccc1)c1cnccn1	4	6	-1	3	i	2	-10	x
CSc1nc(C)cc(NC(N)=O)n1	3	3	-13	-8	i	2	x	x
CC(C(=O)O)N1C(=O)c2cccc3cccc1c23 (stereo not drawn)	-2	-2	9	0	i	0	-21	x
O=C(CCNS(=O)(=O)c1ccc(Br)cc1)NCCc1ccccc1	-1	4	-8	-2	i	4	6	2
OCC[C@H]1C[C@@H](O)[C@H](O)[C@@]2(CCCO2)O1	0	2	-2	x	i	x	-7	-4
CC(=O)c1cccc(NC(=O)COC(=O)CCc2ccc(S(=O)(=O)N3CCOCC3)cc2)c1	-4	-3	-5	1	i	1	x	-7
CC(=O)Nc1cc(NC(C)=O)cc(C(=O)OCC(=O)c2ccc3c(c2)NC(=O)CO3)c1	1	4	-1	x	i	x	-3	-13
Cc1ccc(C(C)C)cc1OCC(=O)NC1CCCCCCC1	-5	-12	48	x	i	x	7	19
Cc1ccnc(N2C(=O)c3ccccc3C2Nc2ccc3c(c2)OCCO3)c1 (stereo not drawn)	-1	-3	6	-8	i	-7	-32	-10
O=C(C1CCCN(Cc2ccccc2F)C1)N1CCCC1 (stereo not drawn)	5	4	17	4	i	7	-21	-20
CCOc1cccc(C(=O)Nc2cccc(NC(=O)c3ccco3)c2)c1	-1	-4	-5	3	i	-5	-10	10
COc1ccc(Cc2nc3ccccc3n2CC(=O)N/N=C/c2ccc(O)cc2)cc1OC	1	6	-12	-16	i	-11	x	-7

Three entries from above, sorted by SMILES length, lowest first:
SMILES	MT1-MMP act inh	MT1-MMP act inh RFP	CSC inhib	PABP polyA inh	Rce1 inhib	eIF4H FP inh	UUG fidelity	Env fusion inh	others
Cc1csc(NC(=O)c2ccc(=O)[nH]c2)n1	0	3	0	2	i	-4	-18	7
Cc1ccnc(N2C(=O)c3ccccc3C2Nc2ccc3c(c2)OCCO3)c1 (stereo not drawn)	-1	-3	6	-8	i	-7	-32	-10
CCOC(=O)CNC(=O)Cn1cnc2sc(C)c(S(=O)(=O)N3CCOCC3)c2c1=O	1	2	-10	-6	x	15	-9	0

(continued)
SMILES	MT1-MMP act inh	MT1-MMP act inh RFP	CSC inhib	PABP polyA inh	Rce1 inhib	eIF4H FP inh	UUG fidelity	Env fusion inh	others
CCc1ccccc1NC(=O)Nc1cccs1	2	5	7	8	i	18	x	8
COc1ccc(CCNC(=O)COc2ccc(-c3ccc(C)cc3)cc2)cc1OC	-4	-9	-27	-4	x	1	-18	x
CCOC(=O)c1c(C)[nH]c(O)c1C=Nc1ccccc1	-11	12	19	8	i	4	-6	-234
Cc1cc(C(=O)c2ccccc2)nc2ccccc12	-3	-3	x	-19	i	-1	-2	-1
COc1ccc2c(COC(=O)CCS(=O)(=O)c3ccc(C)cc3)cc(=O)oc2c1	0	-3	3	x	i	x	-2	-3
Cc1ccnc(Nc2nc(-c3ccccc3)cs2)c1	-11	-30	13	12	i	-5	-10	-300
Cc1cccc(C)c1OCCCCN1CCCCC1	3	1	4	1	i	5	-7	0
O=C(c1cc(-c2ccncc2)nc2ccccc12)N1CCOCC1	4	2	x	x	x	x	-8	8
Cc1ccc(/C=N/NC(=O)Cc2cccs2)o1	-2	1	0	7	i	10	x	-12
Cc1cc(=O)oc2cc(OC(C)C(=O)N3CCCc4ccccc43)ccc12 (stereo not drawn)	-2	-6	-12	-3	x	-2	2	x
CCSc1nnc(NC(=O)CSc2nc(C)cc(C)n2)s1	3	-1	-1	-10	i	-4	x	x
O=C(CCC1CCCC1)Nc1ccccc1-c1ccccc1	-7	-4	23	4	i	1	x	22
CC(C(=O)NC(=O)NC1CCCCC1)N1CCN(c2ccccn2)CC1 (stereo not drawn)	1	1	-10	-4	i	-2	-6	-1
COc1ccc(OCCOC(=O)CNC(=O)c2cccc(C)c2)cc1	6	-2	-16	x	i	x	12	4
Cc1ccnc(NC(=O)c2ccc(NC(=O)CC3SC(N4CCCC4)=NC3=O)cc2)c1 (stereo not drawn)	5	2	-6	x	i	x	x	1
Cc1ccc2nc(-c3ccccn3)cc(C(=O)N3CCN(c4ncccn4)CC3)c2c1	6	3	8	-6	i	1	-27	x
c1ccc(Cc2noc(CN3CCCN(C4Cc5ccccc5C4)CC3)n2)cc1	-3	2	-2	5	i	2	-10	3
O=C(COC(=O)c1cnccn1)Nc1cc(S(=O)(=O)N2CCOCC2)ccc1Cl	1	4	x	x	x	x	-27	-15
CCOC(=O)c1cc2oc(C)cc2n1CC(=O)OC1CCCCC1	-5	1	x	1	i	4	-6	x
O=C(COC(=O)/C=C/C(=O)N1CCN(c2ccccc2)CC1)NCc1ccc(F)cc1	1	0	8	19	i	5	-3	9
CCOC(=O)Cn1nc(NC(=O)c2ccc3c(c2)OCO3)cc1C	1	4	-6	-3	i	-12	-5	-7
O=C(CSc1nc2ccc([N+](=O)[O-])cc2[nH]1)c1ccc2ccccc2c1	3	2	x	2	i	-1	-15	-35
CCC(C)Sc1nnc(CNC(=O)C23CC4CC(CC(C4)C2)C3)n1C1CCCCC1 (stereo not drawn)	-8	-4	-11	-10	i	2	-10	10
O=C(C1CCCCC1)N1CCC(CO)(Cc2ccccc2Cl)CC1	-2	-1	-6	1	x	-7	x	18
CCN(C(=O)CSc1nnc(-c2ccncc2)n1-c1ccccc1)C1CCS(=O)(=O)C1 (stereo not drawn)	4	8	3	7	i	-1	x	7

Compounds listed so far containing a nitro group on carbon (two):
SMILES	MT1-MMP act inh	MT1-MMP act inh RFP	CSC inhib	PABP polyA inh	Rce1 inhib	eIF4H FP inh	UUG fidelity	Env fusion inh	others
O=C(NC(=S)NNC(=O)c1ccccc1O)c1ccc([N+](=O)[O-])cc1	5	-15	17	-12	i	3	-20	27
O=C(CSc1nc2ccc([N+](=O)[O-])cc2[nH]1)c1ccc2ccccc2c1	3	2	x	2	i	-1	-15	-35

The results go on:
SMILES	MT1-MMP act inh	MT1-MMP act inh RFP	CSC inhib	PABP polyA inh	Rce1 inhib	eIF4H FP inh	UUG fidelity	Env fusion inh	others
CSCCC(=O)Nc1cc(S(=O)(=O)N2CCOCC2)ccc1N1CCN(C)CC1	2	3	5	0	i	5	x	-4
COC(=O)c1ccc(CN(C(C)=O)c2ccccc2)o1	-3	7	-7	-2	i	-4	-7	-36
O=c1c2ccccc2nnn1Cc1nnc(-c2ccccc2Br)o1	-7	-3	15	-12	i	-4	x	-42
CCCC12CN3CC(C)(CN(C1)C3c1ccc([N+](=O)[O-])o1)C2=O (stereo not drawn)	-2	3	0	5	i	-1	-19	15
O=C(NCC1CCCO1)c1cc(S(=O)(=O)N2CCOCC2)c(Cl)cc1Cl (stereo not drawn)	2	-7	x	6	i	3	-6	-3
O=C(CCNS(=O)(=O)c1ccc(Br)cc1)N1CCN(c2ccccc2O)CC1	1	-5	-6	x	i	x	0	7
CC(C)CC(C)NC(=O)c1ccc(C(F)(F)F)cc1 (stereo not drawn)	-1	1	-7	-6	i	-2	-21	-1
CCC1Nc2ncnc(N3CCc4ccccc4C3)c2N(Cc2ccc(Cl)cc2)C1=O (stereo not drawn)	0	-9	x	x	x	x	-15	-11
COc1ccc(NC(=O)CC2C(=O)N(Cc3ccco3)C(=S)N2C(C)C)cc1 (stereo not drawn)	3	1	-5	0	i	-7	-17	26
Cc1ccc(CN2C(=O)C(CC(C)C)Nc3ncnc(N4CCOCC4)c32)cc1 (stereo not drawn)	3&-2	6&-2	-7	x	x	x	1&-14	24&-2
COc1ccc([C@H]2C(C#N)=C([S-])N[C@](C)(O)[C@@H]2[n+]2ccccc2)cc1	-14	11	x	32	i	47	7	-3
CSc1ccc(CN(C)CC(=O)NC(=O)NCCC2=CCCCC2)cc1	3	-3	x	x	x	x	7	8
C/C(=N\NC(=O)Nc1ccccc1)c1ccccc1	-3	-2	-1	42	i	-4	-3	x
Cc1ccc(-n2ncc(C(=O)Nc3cc(Cl)ccc3Cl)c2C2CCNCC2)cc1	-10	-6	17	-2	i	0	x	7

Of the compounds above, 7 have a Cl atom.
SMILES	MT1-MMP act inh	MT1-MMP act inh RFP	CSC inhib	PABP polyA inh	Rce1 inhib	eIF4H FP inh	UUG fidelity	Env fusion inh	others
O=C(CCC1CCCN(Cc2ccc(O)c(Cl)c2)C1)NCc1ccccc1F (stereo not drawn)	1	6	-2	-3	i	-4	x	-6
O=C(Nc1cc(Cl)ccc1Oc1ccccc1)c1cnccn1	4	6	-1	3	i	2	-10	x
O=C(COC(=O)c1cnccn1)Nc1cc(S(=O)(=O)N2CCOCC2)ccc1Cl	1	4	x	x	x	x	-27	-15
O=C(C1CCCCC1)N1CCC(CO)(Cc2ccccc2Cl)CC1	-2	-1	-6	1	x	-7	x	18
O=C(NCC1CCCO1)c1cc(S(=O)(=O)N2CCOCC2)c(Cl)cc1Cl (stereo not drawn)	2	-7	x	6	i	3	-6	-3
CCC1Nc2ncnc(N3CCc4ccccc4C3)c2N(Cc2ccc(Cl)cc2)C1=O (stereo not drawn)	0	-9	x	x	x	x	-15	-11
Cc1ccc(-n2ncc(C(=O)Nc3cc(Cl)ccc3Cl)c2C2CCNCC2)cc1	-10	-6	17	-2	i	0	x	7

High-throughput results from PubChem.
